From PubChem BioAssay
HSD17B inh = blocks hydroxysteroid 17-beta dehydrogenase activity. recombinant HSD17B10, NADH fluorescence kinetic; many of its hits are not listed in these tables. 75,000 compounds, 7.6% hits. Potency, µM (highest dose often 57.1 µM), inactives show at the highest dose activity change, negative = inhibition, hits mostly inhibitors. Q99714. AID 893; active = well fitted inhibition curve with a large enough effect; inconclusive = small, poorly fitted or top-dose-only effect; inactive = no such curve, though single readings can be large or run the other way;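 also: the protocol describes HADH2 (HSD17B10) and not the HSD17B4 of the title; nearly all actives have a fitted effect of over 70% in size; most hits overshoot -100% by far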
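20 nM HADH2, pH 9.0 Tris/Tween; cpd preinc 15 min RT; start w/ 1 mM NAD+ + 90 uM b-hydroxybutyryl-CoA; kinetic fluor ex360/em450 q30s x 4 min; delta last-first.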
An asterisk follows results filed as active; ? = inconclusive; & = joins results of further samples; [ ] = remark or other dose. % is scaled to controls: 0 for no effect and ±100 for the full control effect; potency is read from the fitted curve at half-maximal effect. The list is partial. The share of hits here may be higher or lower than overall.

SMILES | HSD17B inh
Cc1ccc(NC(=O)CCC(C(=O)O)N2C(=O)c3ccccc3C2=O)cc1 (stereo not drawn) | 18.6%
Cc1ccccc1-n1c(SCc2ccccn2)nc2n[nH]c(C)c2c1=N | -14.5%
COc1cccc(Oc2cncnc2-c2ccc(OC)cc2O)c1 | 4.2%
CCCCNC(=O)c1c(N)n(/N=C/c2ccccn2)c2nc3ccccc3nc12 | 1.3%
CON(C)c1nc(Oc2ccc(=O)[nH]n2)nc(N(C)C)n1 | 4.4%
Cc1occc1-c1nnc(SCC(=O)Nc2nccs2)n1CCc1ccccc1 | 0.8%
CC(=O)C1C(c2ccncc2)NC(=O)NC1(O)C(F)(F)F (stereo not drawn) | 4.0%
CCNC(=O)CN(c1ccc(OC)c(OC)c1)S(=O)(=O)c1ccccc1 | 4.9%
COC(=O)c1cn(CC(=O)NC2CCCCC2)c2ccccc12 | -0.2%
Cc1ccc2c(c1)CCCN2C(=O)Nc1ccc2c(c1)OCO2 | ?
Clc1ccccc1C1CC(c2ccccc2)Nc2ncnn21 (stereo not drawn) | 3.0%
Cc1ccc(N)cc1-n1c(C)ccc1C | 0.4%
COC(=O)c1[nH]c2ccc(C)cc2c1NC(=O)CN1CCCCC1C (stereo not drawn) | 25.1µM*
CCOc1ccccc1-n1nnnc1SCc1nc2ccccc2s1 | -14.1%
CCN(CC)c1ccc(NC(=O)Cn2cc3c(n2)CCC(C)C3)c(C)c1 (stereo not drawn) | -9.4%
O=C(NCCc1c[nH]c2ccccc12)C1CCN(c2nnc(N3CCCC3=O)s2)CC1 | 1.9%
Oc1cccc(Nc2ccccc2)c1 | -23.1%
O=C(Sc1nnc(-c2ccccc2)o1)N1c2ccccc2Sc2ccccc21 | -22.9%
Cc1ccc2c(c1)C(O)(CC(=O)c1cccnc1)C(=O)N2 (stereo not drawn) | 0.8%
CN(C(=O)c1ccc(NC(=O)C2CC=CCC2C(=O)O)cc1)c1ccccc1 (stereo not drawn) | 2.1%

2 compounds picked at random from the list so far, as already listed:
SMILES | HSD17B inh
O=C(NCCc1c[nH]c2ccccc12)C1CCN(c2nnc(N3CCCC3=O)s2)CC1 | 1.9%
Oc1cccc(Nc2ccccc2)c1 | -23.1%

(more compounds)
SMILES | HSD17B inh
O=C(CC1(O)C(=O)Nc2cc(Cl)cc(Cl)c21)c1ccccc1O (stereo not drawn) | 5.6%
CCOCCn1c(N2CCN(c3ccc(OC)cc3)CC2)nc2c1c(=O)n(C)c(=O)n2C | 6.5%
COC(=O)c1ccc(-c2ccc(CNCC(O)c3ccccc3)o2)cc1 (stereo not drawn) | 12.6µM*
CC[C@]1(c2ncc[nH]2)Cc2ccccc2O1 | -1.6%
CN(C)S(=O)(=O)c1ccc(NS(=O)(=O)/C=C/c2ccccc2)cc1 | -1.6%
OC(CN1CCCCC1)CN(c1ccccc1)c1ccccc1 (stereo not drawn) | -13.3%
COc1ccc(CCNC(=O)CCNS(=O)(=O)c2cccc3nsnc23)cc1OC | -3.5%
COCCn1c(=O)c(-c2cc(F)cc(F)c2)nc2cnc(OC)nc21 | 20µM*
Cc1c(NC(=O)CSc2nncc3ccccc23)c(=O)n(-c2ccccc2)n1C | -15.2%
OCC1OC(/C=C\c2ccccc2)C=CC1Oc1ccc2c(c1)OCO2 (stereo not drawn) | -4.8%[11.4 µM]
CCOc1ccc(CNC23CN4CN(CN(C4)C2)C3)cc1 | 0.3%
Cc1c(Br)cc(C(=O)NCCCN2CCOCC2)c(C)c1C | -13.6%
CCCCn1c(C(C)NC(=O)CCC)nc2ccccc21 (stereo not drawn) | 9.6%
O=C(CN1C(=O)CSC1=O)c1ccccc1 | 13.2%
CCC(C)NC(=O)Cn1cnc2sc(C)cc2c1=O (stereo not drawn) | -8.4%
c1csc(-c2csc(-c3cccs3)n2)c1 | -18.3%
CNC(=O)Nc1cc(C(C)(C)C)no1 | 1.9%
CS(=O)(=O)N1CCN(C(=O)c2ccc(-c3ccccc3)cc2)CC1 | 9.7%
CCC(c1nnnn1CCc1ccccc1)N1CCN(C(=O)c2ccco2)CC1 (stereo not drawn) | 11.1%
CC(C)(C)OC(=O)NC(CCNC=C1C(=O)OC(C)(C)OC1=O)C(=O)O (stereo not drawn) | 9.2%
Cc1nn(Cc2ccc(Cl)c(Cl)c2)c(C)c1NC(=O)c1cc(-c2ccco2)on1 | ?
CCOc1ccc(C2C(C(=O)Nc3ccc(F)cc3)=C(C)Nc3nc(CCCO)nn32)cc1 (stereo not drawn) | 25.1µM*
CC(C)Cn1c(=O)c(C(=O)Nc2ccccc2S(N)(=O)=O)c(O)c2ccccc21 | -4.0%
O=C1c2ccccc2CN1CCNS(=O)(=O)c1ccc(Cl)cc1 | 17.7%
CCOC(=O)Nc1ccc(S(=O)(=O)NCc2ccccc2)cc1 | 4.8%
CCc1ccc2nc(SCC(=O)N(CC)CC)c(C#N)cc2c1 | -2.0%
COc1cccc(-n2c(CNc3ccc(F)cc3)nnc2SCC(N)=O)c1 | 4.5%
O=C(Nc1ccc(Cl)cc1)Nc1ccc2c(c1)N1CCN=C1S2 | -16.2%
Cn1cccc1C(=O)N1CCC2(CC1)CCN(c1ccc(-c3ccccc3)cc1)CC2 | -16.1%
COc1cc(OC)c(C2C(C#N)=C(N)Oc3cc(C)n(CCCN4CCOCC4)c(=O)c32)cc1OC (stereo not drawn) | 3.1%
O=C(CN1C(=O)CSC1=O)Nc1ccccc1N1CCOCC1 | 5.2%
COc1cc2c(CCNC(C)=O)c[nH]c2cc1Cl | -8.6%
CC(CN(C)Cc1ccccc1)OC(=O)c1ccc2c(c1)OCCO2 (stereo not drawn) | -5.9%
O=C(Nc1nc(-c2ccncc2)cs1)c1ccc(S(=O)(=O)N2CCOCC2)cc1 | 35.2%[activator]
CN(C)c1cc(O)c(C(=S)Nc2ccccc2)c(N(C)C)c1 | -13.4%
CN(C1CCS(=O)(=O)C1)S(=O)(=O)c1ccc(N2CCCC2=O)cc1 (stereo not drawn) | -1.9%
O=C(NC1CCCCCCC1)c1ccco1 | -5.4%
CCc1nnc(NC(=O)c2ccncc2)s1 | 1.9%
CCOC(=O)c1cc2cc(C)ccc2[nH]1 | -29.8%
CC1CC(C)CN(CCCn2c(=S)[nH]c3ccccc3c2=O)C1 (stereo not drawn) | 9.2%

Exported as labelled records: entries from further up.
> CN(C)c1cc(O)c(C(=S)Nc2ccccc2)c(N(C)C)c1
- HSD17B inh: -13.4%

> CN(C1CCS(=O)(=O)C1)S(=O)(=O)c1ccc(N2CCCC2=O)cc1 (stereo not drawn)
- HSD17B inh: -1.9%

> O=C(NC1CCCCCCC1)c1ccco1
- HSD17B inh: -5.4%

> CCc1nnc(NC(=O)c2ccncc2)s1
- HSD17B inh: 1.9%

Remaining list, next part.
SMILES | HSD17B inh
CC(=O)c1cccc(NC(=O)N2CCCC2C(=O)NCc2ccccc2)c1 (stereo not drawn) | 10.8%
Cc1nn(CC(O)COc2ccc3c(c2)CCC3)c(C)c1C (stereo not drawn) | -4.4%
COC(=O)C1=C(N)Oc2cc(C)n(Cc3cccnc3)c(=O)c2C1c1ccc(OC)c(OC)c1OC (stereo not drawn) | 2.0%
CCCC(=O)Nc1c(O)c2ccccc2[nH]c1=O | ?
CCC(C)(C)n1nnnc1C(c1cc2cc(OC)c(OC)cc2[nH]c1=O)N1CCc2ccccc21 (stereo not drawn) | -10.5%
COC(=O)CCCOc1ccc(Cl)cc1Cl | -1.5%
NC(=O)C1CCCN(S(=O)(=O)c2ccccc2)C1 (stereo not drawn) | -5.7%
CC(=O)Nc1nc2ccccc2n1Cc1ccccc1C | 6.7%
CC(=O)O[C@H]1CSC[C@H]1NC(=O)c1ccccc1 | 3.2%
O=C(O)CCSc1ncnc2nc[nH]c12 | 1.4%[11.4 µM]
CC(=O)c1cccc(NC(=O)N2CCCC2C(=O)Nc2cccc(C)c2)c1 (stereo not drawn) | 0.4%
Cc1cc(SCC(=O)OCC(=O)N2CCN(C(=O)c3ccco3)CC2)c(C)cc1Br | -3.0%
Cc1c(NC(=O)C(C)Sc2nnc(-c3ccccc3)o2)c(=O)n(-c2ccccc2)n1C (stereo not drawn) | -3.1%
COc1ccc(NC(=O)CSc2nc(C)cc(C(F)(F)F)n2)cc1 | -7.9%
CCOc1cccc(-c2nc3cc(C)ccc3o2)c1 | 31.6µM*
CC(=O)n1c2ccccc2c2c(C#N)c(N3CCCCC3)sc21 | -2.5%
C=CC(=O)OCCOCCOCCOCCOC(=O)C=C | 0.7%&5.4%
CC(C)c1nnc(NC(=O)CN(C)S(=O)(=O)c2ccc3c(c2)OCCO3)s1 | 10.4%
COc1ccc(N2CCN(CCNC(=O)C3CCN(S(=O)(=O)c4cccs4)CC3)CC2)cc1 | 6.2%
O=C(CNC(=O)c1ccco1)OCc1c(F)cccc1Cl | -1.5%

Six of these compounds in a different format:
SMILES,HSD17B inh
O=C(CNC(=O)c1ccco1)OCc1c(F)cccc1Cl,-1.5%
Cc1c(NC(=O)C(C)Sc2nnc(-c3ccccc3)o2)c(=O)n(-c2ccccc2)n1C (stereo not drawn),-3.1%
COc1ccc(NC(=O)CSc2nc(C)cc(C(F)(F)F)n2)cc1,-7.9%
COC(=O)C1=C(N)Oc2cc(C)n(Cc3cccnc3)c(=O)c2C1c1ccc(OC)c(OC)c1OC (stereo not drawn),2.0%
COc1ccc(N2CCN(CCNC(=O)C3CCN(S(=O)(=O)c4cccs4)CC3)CC2)cc1,6.2%
CCOc1cccc(-c2nc3cc(C)ccc3o2)c1,31.6µM*

More entries follow:
SMILES | HSD17B inh
CCOC(=O)c1cc2cc(-c3c(C(=O)OCC)oc4cc(O)cc(O)c4c3=O)ccc2o1 | -14.9%
O=C(O)CC1(C(=O)O)CCCCC1 | 0.5%[11.4 µM]
CC1(C)CCCC2=C1CC1C(=O)N(c3ccccc3)C(=O)C1C2 (stereo not drawn) | 0.8%
CCOC(=O)c1cc(-c2cc3ccccc3o2)n[nH]1 | -4.8%
CC(C)(C)NC(=O)c1ccc2c(c1)N(CC(=O)N1CCN(c3ccc(F)cc3)CC1)C(=O)C(C)(C)O2 | 4.8%
CCCCc1nc2ccccc2c(C(=O)O)c1C | -11.8%
CN(C1CCCCC1)S(=O)(=O)c1ccc(NC(=O)c2ccco2)cc1 | -5.2%
N#Cc1ccc(CN2CCCC3(CCN(C(=O)c4ccco4)CC3)C2)cc1 | -2.8%
Cc1ccc2nc(NC(=O)C3CCCN(S(=O)(=O)c4cccc5nsnc45)C3)sc2c1 (stereo not drawn) | -12.9%
CCn1c(COc2ccc(OC)cc2)nnc1SCC(=O)Nc1cc(OC)ccc1OC | 2.1%
O=c1cc(Cn2nnc(-c3ccc(Cl)cc3)n2)nc2sccn12 | -10.6%
Cc1csc(NC(=O)C2CCCN(S(=O)(=O)c3cccnc3)C2)n1 (stereo not drawn) | 0.3%
Cc1ccc(NC(=O)C2CC(=O)NC(N3CCCCC3)=N2)cc1Cl (stereo not drawn) | -5.7%
O=C(OCC(=O)N1CCC(Cc2ccccc2)CC1)c1ccc[nH]c1=O | -6.6%
CCOc1ccc(-c2nnc(NC(=O)c3ccc(OCC(C)C)c(OC)c3)o2)cc1 | -13.7%
COc1ccc(NC(=O)Nc2c(C)n(-c3ccccc3)c(=O)n2C)cc1OC | 1.7%
O=C(Cn1cc(C(=O)c2ccco2)c2ccccc21)NC1CCCC1 | -2.2%
CNC(=O)c1cc(C)c(-c2ccccc2)s1 | ?
CN(Cc1ccccc1)Cc1nc2c(c(=O)n(C)c(=O)n2C)n1Cc1ccccc1Cl | 7.5%
Cc1ccc2cc(CN(Cc3nnnn3C3CCCCC3)CC3CCCO3)c(=O)[nH]c2c1 (stereo not drawn) | 1.4%
CCCn1c2c(c(O)c(C(=O)Nc3ncccc3O)c1=O)CCCC2 | 4.1%
NC(=NCc1ccc(Cl)c(Cl)c1)NC(=O)c1nc(Cl)c(N)nc1N | 25.1µM*
O=P(O)(CCc1ccccn1)CN1CCOCC1 | 0.1%
CC1Cc2cc(/C(O)=C3/C(=O)C(=O)N(Cc4ccco4)C3c3cccs3)ccc2O1 (stereo not drawn) | 20µM*
COc1ccc2[nH]cc(CCNc3cc(-c4ccc5c(c4)OCO5)ncn3)c2c1 | ?
CN=c1scc(C)n1/N=C/c1ccc2c(c1)OCO2 | -5.2%
CCCCS(=O)(=O)c1sc2nc(C)cc(C)c2c1N | -21.1%
COC(=O)c1c(F)c(F)c(NCCO)c(F)c1F | 7.4%
CCC(=O)Nc1ccc(S(=O)(=O)c2ccc(NC(=O)CC)cc2)cc1 | -26.1%
c1ccc(CSc2nnc(Cc3ccccn3)o2)cc1 | -3.6%
CS(=O)(=O)N(CC(=O)Nc1cccnc1)c1ccc2c(c1)OCCO2 | 16.9%
Nc1ncnc2c([C@@H]3O[C@@H](CO)[C@H](O)[C@@H]3O)nsc12 | 11.4%[11.4 µM]
Cc1ccccc1CSCC(=O)c1c(N)n(C)c(=O)n(C)c1=O | 3.9%
Cc1ccnc2c(N3C(=O)C4C5C=CC(C5)C4C3=O)cccc12 (stereo not drawn) | -1.7%
CCOC(=O)C1=C(N)OC2=C(C(=O)CC(C)(C)C2)C1c1ccoc1 (stereo not drawn) | -6.2%
CCC(=O)N1CCN(c2ccc(Cl)cc2NC(=O)Cc2ccccc2)CC1 | 4.2%
O=S(=O)(c1cc(Cl)ccc1Br)N1CCCCC1 | -6.2%
COc1ccc(/C(C)=N\n2cnnc2)cc1 | 10.4%
Cc1ccc(C(O)CN2C3=NCCN3c3ccccc32)cc1 (stereo not drawn) | -0.8%
CC(=O)N(c1ccccc1)C1SC(=O)N(c2ccccc2)C1=O (stereo not drawn) | -0.8%
FC(F)(F)c1nc2ncc(Cl)cc2[nH]1 | 2.4%
CC1N=C2c3ccccc3N=C(SCc3cc(=O)n4ccccc4n3)N2C1=O (stereo not drawn) | -17.5%
